VACV Venus inh: qHTS for Stage-Specific Inhibitors of Vaccinia Orthopoxvirus: Venus Reporter Primary qHTS; Vaccinia virus Venus reporter expression, fluorescence; Potency, µM (titrated, usually from 36.5 µM), without a hit: at the top dose activity change, negative = inhibition, usual class: inhibitors; hit rate 0.46% among 330,000; active means well fitted inhibition curve with a large enough effect; inconclusive means small, poorly fitted or top-dose-only effect; inactive means no such curve, though single readings can be large or run the other way; tested in A549 cells; note: nearly all actives have a fitted effect of over 30% in size; inactives centre near -10
VACV mCherry inh: qHTS for Stage-Specific Inhibitors of Vaccinia Orthopoxvirus: mCherry Reporter Primary qHTS | Vaccinia virus mCherry reporter infection, fluorescence; about a quarter of the inactives have no number | Potency, µM (titrated, usually from 36.5 µM), without a hit: at the highest dose activity change, negative = inhibition, usual class: inhibitors | hit rate 0.63% among 310,000; active = well fitted inhibition curve with a large enough effect; inconclusive = small, poorly fitted or top-dose-only effect; inactive = no such curve, though single readings can be large or run the other way; tested in A549 cells; note: nearly all actives have a fitted effect of over 35% in size; inactives centre near -10
Active calls of the source: *; i = inactive; ? = inconclusive; . = no result given; & = joins results of further samples; [ ] = another dose, or the depositor's remark. % is set by controls: 0 for no effect and ±100 for the full control effect; potency is the fitted concentration of half-maximal effect.

SMILES	VACV Venus inh	VACV mCherry inh
CCN(CC)C(=O)C1=C(C)N(Cc2ccc(C(C)(C)C)cc2)C(=O)C(CC(=O)NCc2cccs2)C1 (stereo unspecified)	?	?
COc1ccc(S(=O)(=O)N2CCOCC2)cc1NS(=O)(=O)c1ccc(F)c(F)c1	-12%	i
COC(=O)C1=C(C(=O)OC)[C@@H]2N(C)c3ccccc3[C@@]23C[C@@H](C(=O)OC)N(C(=O)c2cccs2)C3=N1	?	-27%
CC(C)(C)OC(=O)N1CCN(C(=O)Nc2ccc3c(c2)OCCO3)CC1	-4%	-1%
COc1ccccc1/C=C/c1onc(C)c1S(=O)(=O)N1CCC(C(=O)NC(C)C)CC1	-12%	-17%
COc1cccc(CN(c2ccccc2C(=O)O)S(=O)(=O)c2ccc(C)cc2)c1	-2%	i
O=C(CN1C(=O)C2C3C=CC(C3)C2C1=O)NC1CCCc2ccccc21 (stereo unspecified)	-10%	-9%
COC(=O)[C@@H]1[C@@H](C#N)C2(c3ccccc3-c3ccccc32)N(c2ccc(Cl)cc2)N1C#N	?	?
Nc1cc(Cl)c2nonc2c1[N+](=O)[O-]	10µM*	10µM*
N#Cc1ccccc1COc1cccc2c1CCCC2O (stereo unspecified)	-10%	i
Clc1cccc(CNCCCSc2ncccn2)c1Cl	-9%	?
CC1=C(C(=O)N(C(C)C)C(C)C)CC(CC(=O)NCc2cccs2)C(=O)N1Cc1ccc(F)cc1 (stereo unspecified)	-25%	-12%
O=C(Cn1cc(SCc2cccc(C(F)(F)F)c2)c2ccccc21)N1CCCCCC1	-9%	-13%
CN1C(=O)CCC2(c3ccccc3)CC=C(O)C=C12 (stereo unspecified)	-9%	i
Cc1ccccc1CC1(CO)CCCN(C(=O)c2ccccc2Cl)C1 (stereo unspecified)	-8%	-14%
O=C(NCc1ccc2c(c1)OCO2)c1nnc(Cc2ccc(Cl)cc2)o1	-9%	-2%
CCCCn1c(SCC(=O)N2c3ccccc3CCc3ccccc32)nc2c1c(=O)n(C)c(=O)n2C	-10%	i
O=C(Nc1ccc(NS(=O)(=O)c2ccccc2)cc1)c1ccccc1	-1%	-12%
CC1(C)S[C@@H]2[C@H](NC(=O)C(C(=O)O)c3ccccc3)C(=O)N2[C@H]1C(=O)O (stereo partly specified)	-13%&-3%	-14%&-15%
Cc1ccc(N(CC(=O)NC2CCCC2)C(=O)CCC(=O)Nc2nc(C)cs2)cc1	-18%	-11%
COCCOCCn1c(/C=C/c2ccccc2)nc2ccccc21	-6%	i
CCC1CN(C(=O)Nc2ccc(C)cc2)c2cc(C)ccc2O1 (stereo unspecified)	-15%	-8%
CNC(=S)NC1CC2CCCC(C1)N2Cc1ccco1 (stereo unspecified)	-7%	-7%
CCCN(CCC)CCCNC(=O)Cn1cnc2sc(C)c(S(=O)(=O)N3CCOCC3)c2c1=O	9%	-6%
COC(=O)C1CCCN1C(=O)COc1ccc(Br)cc1Cl (stereo unspecified)	-15%	i

Next results
SMILES	VACV Venus inh	VACV mCherry inh
CCOC(=O)C1CCN(C(=O)COC(=O)c2cc([N+](=O)[O-])ccc2N2CCOCC2)CC1	-7%	-6%
CCOC(=O)/C=C/C(=O)OCC(=O)NC(c1ccccc1)c1ccccc1	-24%	-14%
CN(C)c1ccc(CNC(=O)CCNS(=O)(=O)c2cc(Br)cnc2N)cc1	-18%[7.34 µM]	i[7.34 µM]
CC1(C)CC(=O)C2=C(C1)Nc1ccccc1NC2c1cc(Cl)ccc1O (stereo unspecified)	-11%	-25%
COc1ccc(OC)c(NC(=O)Cn2cc(S(=O)(=O)c3ccccc3)c(=O)c3cc(C)ccc32)c1	-8%	-7%
COc1cccc(-c2cc(CNC(=O)[C@H]3O[C@@H](n4ccc(=O)[nH]c4=O)[C@H](O)[C@@H]3O)no2)c1	8%	3%
COc1ccc2nc(NC(=O)c3ccc(-n4nc(C)cc4C)cc3)sc2c1	-18%	.
CCC(C)OC(=O)C(C)Oc1ccc(-c2ccccc2)cc1 (stereo unspecified)	-8%	i
CCC(CC)C(=O)c1c[nH]c(C(=O)O)c1	-12%	i
COCCCNC(=O)CSc1nc2sc(C(=O)OC)c(C)c2c(=O)n1N	-12%	i
Cc1nnc(SCCn2c(N3CCCCC3)nc3c2c(=O)[nH]c(=O)n3C)s1	-12%	i
Cc1ccccc1OC1CCN(C(=O)c2cc(COc3ccccc3)on2)CC1	-15%	i
Cc1ccc(S(=O)(=O)NCCc2nnc3ccc(SCC(=O)Nc4c(C)cc(C)cc4C)nn23)cc1	-11%	1%
CCOC(=O)C1(Cc2cccc(OC)c2)CCN(C/C=C/c2ccccc2)CC1	-22%	-24%
N#Cc1cccc(Oc2ccc(-c3cnc4ccccc4n3)cc2)c1C#N	-13%	-11%
Cc1cccc(-c2oc3ccccc3c2C#CCCCCO)c1	?	-29%
COCCCNC(=S)NNC(=O)c1cccnc1	-1%	-8%
CCCS(=O)(=O)NC(=O)C1(C)CCCN(C(=O)c2c(F)ccc(C)c2F)C1 (stereo unspecified)	4%	i
CCOC(=O)Cn1c(=O)oc2cc(S(=O)(=O)NC(C)c3ccccc3)ccc21 (stereo unspecified)	-10%&-11%	0%&-5%
O=C(NCCCNC(=O)c1cccs1)c1cccs1	-1%	-3%
O=C(O)c1cc(Cl)n[nH]c1=O	6%	i
CC(=O)c1ccc(N2CCN(C(=O)c3ccc(NC4=NC5CS(=O)(=O)CC5S4)cc3)CC2)cc1 (stereo unspecified)	-1%	i
C#CC1(NC(=S)Nc2cccc(OC)c2)CCCCC1	-17%	i
Cc1ccccc1CN1C(=O)CN(S(C)(=O)=O)CC1(C)C(=O)Nc1ccc2c(c1)OCCO2 (stereo unspecified)	-14%	-15%
O=C(C[n+]1cccc(Br)c1)c1ccc(O)c(O)c1	11%	17%

3 compounds already listed, arranged by number of heavy atoms, descending.
SMILES	VACV Venus inh	VACV mCherry inh
CCCCn1c(SCC(=O)N2c3ccccc3CCc3ccccc32)nc2c1c(=O)n(C)c(=O)n2C	-10%	i
CCOC(=O)C1CCN(C(=O)COC(=O)c2cc([N+](=O)[O-])ccc2N2CCOCC2)CC1	-7%	-6%
CCC1CN(C(=O)Nc2ccc(C)cc2)c2cc(C)ccc2O1 (stereo unspecified)	-15%	-8%

Next part.
SMILES	VACV Venus inh	VACV mCherry inh
NC(=O)CC(NSc1ccccc1[N+](=O)[O-])C(=O)O (stereo unspecified)	-8%	8%
COCCNC(=O)C1C(=O)Nc2ccccc2C(=O)N1C1CCCC1 (stereo unspecified)	-16%	0%
CCCCNC(=O)c1ccc2nc(CC)c(N(CC)CCOC)n2c1	-9%	2%
Cc1ccc(Cn2c(CCCO)nc3ccccc32)cc1	-3%	-12%
CN(C)c1ccc(C(=S)N2CCN(C(=S)Nc3ccc(Cl)cc3)CC2)cc1	-21%	-10%
Cc1cccc(N(C)S(=O)(=O)c2ccc3[nH]cc(C(=O)N4CCOCC4)c(=O)c3c2)c1	-7%	.
Cc1cc(C)c2c(=O)cc(C(=O)NCc3ccc(S(N)(=O)=O)cc3)oc2c1	-2%	3%
CCCCN1C(=O)N(C)C2NC(=O)NC21 (stereo unspecified)	-10%	-12%
Cc1nn(CCCC(=O)Nc2cccnc2)c(C)c1[N+](=O)[O-]	17%	i
Cc1cc(C)n2cc(CSc3nnnn3-c3ccc(Cl)cc3)nc2n1	?	.
CCC(C(=O)NC(C)(C)C)N(Cc1ccco1)C(=O)Cn1nnc(-c2ccc(F)cc2)n1 (stereo unspecified)	-3%	i
COc1cccc(NC(=O)COC(=O)c2ccccc2C(=O)N(C)c2ccccc2)c1	-13%	-8%
O=C(NC1CCCC1)C(c1ccccc1)N(Cc1ccc2c(c1)OCO2)C(=O)Cc1cccs1 (stereo unspecified)	?	-26%
CC(=O)CSc1nnc(CSc2ncccn2)n1C1CCCCC1	-10%	i
CC(CCc1ccccc1)N1CCN(C)CC1 (stereo unspecified)	-2%	-10%
COc1ccc(OC)c(S(=O)(=O)NCC(c2ccc(N(C)C)cc2)N2CCOCC2)c1 (stereo unspecified)	-11%	-14%
Cc1onc(-c2ccccc2Cl)c1C(=O)Nc1ccc(N2CCOCC2)cc1	-13%	.
COc1ccc(-c2csc(C3=C(O)CN(Cc4ccc(S(N)(=O)=O)cc4)C3=N)n2)cc1OC	-2%	.
Cc1cccc(OCC(=O)Nc2nnc(S(=O)(=O)N3CCCCCC3)s2)c1	-3%&-8%	-14%&-7%
Cc1cccc(N2CCN(C(=O)c3ccc4nc(N5CCC(C)CC5)sc4c3)CC2)c1C	-19%	-21%
CC1=CC(C)(C)NC(=S)N1c1cccc2cc(S(=O)(=O)O)ccc12	-3%	i
Cc1ccc2c(c1)N(C(=O)NCc1ccccc1)CCO2	-1%	-12%
O=C(NCC1CCCO1)c1nnc(Cc2ccc(F)cc2)o1 (stereo unspecified)	-9%	i
O=C(O)CC1(CC(=O)N2CCOCC2)CCCC1	6%	23%
CCOC(=O)N1CCN(C(=O)c2cn(CCOC)c(=O)c3c2c2ccccc2n3C)CC1	-15%	-12%

(listing goes on)
SMILES	VACV Venus inh	VACV mCherry inh
COc1ccc(OCCC(=O)OCC(=O)Nc2cccc(S(=O)(=O)N3CCOCC3)c2)cc1	-4%	i
Cc1ccc(C(=O)CC(C(=O)O)c2cn(CCC#N)c3ccccc23)cc1 (stereo unspecified)	3%	15%
CCc1cccc(NC(=O)CSC2=Nc3ccccc3N=C(c3ccc(F)cc3)C2)c1	-14%	-11%
Cc1[nH]n(-c2ccccc2)c(=O)c1/C=C1/C=c2ccccc2=N1	-6%	i
COc1ccccc1-c1cnc(C(O)c2ccc(C)c(F)c2)[nH]1 (stereo unspecified)	-4%	14%
CC1CCN(c2ccc(C(=O)O)cc2NS(=O)(=O)c2ccc(Br)cc2)CC1	-12%	-13%
Cc1ccc(NC(=O)Cn2ccsc2=N)c([N+](=O)[O-])c1	7%	-10%
Cc1ccc(N(C)S(=O)(=O)c2nnc(NC(=O)c3ccco3)s2)cc1	-27%&-3%	-20%&-9%
CC1(C)CC(=O)C2=C(C1)N(N1CCOCC1)C(N)=C(C#N)C2c1cccnc1 (stereo unspecified)	2%	.
COc1ccccc1N/C=C/c1onc(C)c1[N+](=O)[O-]	-9%	?
Cc1ccc(C)c(Cn2c(C(=O)O)c(CNCc3cccs3)c3ccccc32)c1	-7%	-17%
CCOC(=O)N1CCN(C(=S)Nc2ccccc2C)CC1	-5%	i
CC(C)n1cnc2c(N(C)c3ccccc3)nc(N(CCN(C)C)Cc3ccccc3)nc21	13µM*	?
O=C(NCCc1ccccc1)C1Cc2c(-c3ccc(Cl)cc3)ccnc2O1 (stereo unspecified)	-10%	-1%
Cn1c(=O)c2c(-c3ccccc3Br)n(C(C)(C)C)cc2n(C)c1=O	-5%	-13%
COC(=O)C1=C(c2ccc(F)cc2F)C[C@@H]2CC[C@H]1N2C(=O)NCc1ccco1	-6%	-8%
CCCC(CCC)=NNC(=O)c1ccccc1F	-14%	-12%
O=c1ccn([C@@H]2O[C@H](CNCc3cccn3-c3nccs3)[C@@H](O)[C@H]2O)c(=O)[nH]1	5%	20%
Cc1ccccc1C(=O)NNC(=O)c1ccc2nc[nH]c2c1	-5%	i
CC(C)N=C1NN=C(c2cccs2)CS1	-9%	1%
COc1cccc(CNC(=O)Cc2ccc(-c3ccccc3)cc2)c1	-19%	?

Among those listed so far, 12 contain a Cl atom.
SMILES	VACV Venus inh	VACV mCherry inh
COC(=O)[C@@H]1[C@@H](C#N)C2(c3ccccc3-c3ccccc32)N(c2ccc(Cl)cc2)N1C#N	?	?
Nc1cc(Cl)c2nonc2c1[N+](=O)[O-]	10µM*	10µM*
Clc1cccc(CNCCCSc2ncccn2)c1Cl	-9%	?
Cc1ccccc1CC1(CO)CCCN(C(=O)c2ccccc2Cl)C1 (stereo unspecified)	-8%	-14%
O=C(NCc1ccc2c(c1)OCO2)c1nnc(Cc2ccc(Cl)cc2)o1	-9%	-2%
COC(=O)C1CCCN1C(=O)COc1ccc(Br)cc1Cl (stereo unspecified)	-15%	i
CC1(C)CC(=O)C2=C(C1)Nc1ccccc1NC2c1cc(Cl)ccc1O (stereo unspecified)	-11%	-25%
O=C(O)c1cc(Cl)n[nH]c1=O	6%	i
CN(C)c1ccc(C(=S)N2CCN(C(=S)Nc3ccc(Cl)cc3)CC2)cc1	-21%	-10%
Cc1cc(C)n2cc(CSc3nnnn3-c3ccc(Cl)cc3)nc2n1	?	.
Cc1onc(-c2ccccc2Cl)c1C(=O)Nc1ccc(N2CCOCC2)cc1	-13%	.
O=C(NCCc1ccccc1)C1Cc2c(-c3ccc(Cl)cc3)ccnc2O1 (stereo unspecified)	-10%	-1%

Screens deposited in PubChem by National Center for Advancing Translational Sciences (NCATS).
